# PABP polyA inh: blocks human PABP binding to poly(A) RNA | inhibition, % at 35 µM | 290,000 compounds, 1% hits | fluorescence polarization | P11940;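 active = 50% or more with normal probe brightness, or confirmed in later tests; inconclusive = above 50% with abnormal brightness, or retests that disagree; inactive = below 50% or failed in later tests; about a fifth of its hits are not listed in these tables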;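 also: calls also rest on retests at 20 µM and on dose response follow-up; controls were probe without protein and protein plus probe with vehicle; some compounds called inactive have numbers as strong as hits; many hits fall short of the cut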
# Target sequence (P11940 whole entry, looked up): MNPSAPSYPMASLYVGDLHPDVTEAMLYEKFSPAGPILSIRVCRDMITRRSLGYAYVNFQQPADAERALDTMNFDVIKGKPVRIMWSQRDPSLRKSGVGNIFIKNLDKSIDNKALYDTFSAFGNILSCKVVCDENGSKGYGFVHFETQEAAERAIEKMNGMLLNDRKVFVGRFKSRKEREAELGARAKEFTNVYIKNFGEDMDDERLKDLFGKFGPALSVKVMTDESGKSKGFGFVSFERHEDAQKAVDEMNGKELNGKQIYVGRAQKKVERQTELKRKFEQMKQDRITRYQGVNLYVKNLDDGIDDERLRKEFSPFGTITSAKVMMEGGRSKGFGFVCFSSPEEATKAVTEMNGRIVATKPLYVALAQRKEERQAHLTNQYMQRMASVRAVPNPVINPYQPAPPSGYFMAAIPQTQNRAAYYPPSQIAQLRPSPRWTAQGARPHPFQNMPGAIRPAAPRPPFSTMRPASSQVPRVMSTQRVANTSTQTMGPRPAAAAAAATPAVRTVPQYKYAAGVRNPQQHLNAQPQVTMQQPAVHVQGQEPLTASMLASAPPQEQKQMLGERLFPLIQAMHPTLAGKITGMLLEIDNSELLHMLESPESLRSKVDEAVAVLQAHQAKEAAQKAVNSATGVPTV
# CSC inhib: cancer stem cell inhibition | cancer stem cell-like cells viability, luminescence | inhibition, % at 7.5 µM | 300,000 compounds, 1.1% hits | AID 2717;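 active = mean at 75% or more and at least half the replicates too; inconclusive = mean and replicates disagree; tested in HMLE shEcad cells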;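 also: 0% = median of negative and 100% = median of positive control wells; the first replicate is given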
# eIF4H inh: inhibitors of RNA binding by human eIF4H. Q15056. eIF4H fluorescence polarization binding assay. inhibition, % at 35 µM. 290,000 compounds, 0.94% hits. AID 2012;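 active = 50% or more with normal probe brightness, or confirmed in later tests; inconclusive = above 50% with abnormal brightness, or retests that disagree; inactive = below 50% or failed in later tests; about a fifth of its hits are not listed in these tables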;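 also: calls also rest on retests at 20 µM and on dose response follow-up; 0% = protein and probe with vehicle and 100% = probe without protein; strong numbers were not always called active; many hits fall short of the cut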
# MT1-MMP act inh: inhibitors of human MT1-MMP activation. GFP/RFP ratio change, % at 20 µM. 360,000 compounds, 0.061% hits. P50281. HT1080 RFP-PRO-GFP cells, GFP/RFP ratio fluorescence, overnight; percent of plate control window, DMSO zero;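 active = GFP/RFP ratio change of at least 30% with cell ATP level not reduced by more than half and red fluorescence within 50% of control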; also: strong numbers were not always called active
#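 Assay system: HT1080 cells carrying an RFP-PRO-GFP reporter | Dosing: Single dose of 20 µM compound, 1% DMSO final | Incubation: Cells overnight before dosing, compound overnight, 37 °C, 5% CO2 | Evaluation: GFP/RFP fluorescence ratio | Control set: DMSO and RFP-L50D-GFP cell wells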
# UUG fidelity: modulators of start codon recognition fidelity in yeast. S. cerevisiae UUG-firefly luciferase reporter, luminescence/redox ratio. activity score, % at 18.7 µM. 350,000 compounds, 0.13% hits. AID 602363;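 active = replicate mean at a twofold rise or more, about +100% in these data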;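 also: firefly luciferase made from a UUG start codon reports start codon fidelity; reporter light over untreated wells divided by growth signal over untreated wells; some hits fall short of that in this replicate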
# HIV Env fusion: inhibitors of HIV Env-mediated cell fusion | HeLa-JRFL Env/CEM21 cell fusion, luciferase | inhibition, % at 12.3 µM | 360,000 compounds, 1.1% hits;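 active = mean replicate inhibition score of at least 50 and every replicate individually at or above 50; inconclusive = only one of the two criteria met; inactive = mean below 50 and not all replicates reaching 50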;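 also: 0% = plate neutral controls and 100% = maraviroc near 300 nM; one replicate is shown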
# Rce1 inhib: yeast Ras-converting enzyme inhibition; calls only; Q03530; 290,000 compounds, 0.27% hits; yeast membranes, quenched prenylated peptide cleavage fluorescence;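 active = fall in fluorescence gain of 50% or more versus controls, with final raw signal at or below 3038400; inconclusive = same 50% fall but final raw signal above 3038400; inactive = fall in fluorescence gain under 50%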;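 also: plate controls were neutral control wells for no effect and wells lacking membranes for full effect; tested at 10 µM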
# Target sequence (Q03530 whole entry, looked up): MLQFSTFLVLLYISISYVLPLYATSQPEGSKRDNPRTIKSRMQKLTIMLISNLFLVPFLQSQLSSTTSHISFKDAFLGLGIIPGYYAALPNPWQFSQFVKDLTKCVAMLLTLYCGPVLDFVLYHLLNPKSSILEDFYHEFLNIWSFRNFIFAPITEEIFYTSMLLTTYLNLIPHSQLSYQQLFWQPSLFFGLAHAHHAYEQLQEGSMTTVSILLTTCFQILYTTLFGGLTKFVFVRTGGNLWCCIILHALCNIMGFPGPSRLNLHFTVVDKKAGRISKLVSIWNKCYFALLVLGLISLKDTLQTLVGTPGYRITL
# eIF4H inh retest: further read-out of eIF4H inh, marked with its call; inhibition, %; compound at 20 µM; confirmation average;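 mean of two retest wells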
# PABP polyA inh retest: second read-out of PABP polyA inh, no call of its own (marks repeat the call); inhibition, %; compound at 20 µM; confirmation repeats;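 mean of two retest wells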
# MT1-MMP act inh RFP: also measured in MT1-MMP act inh; calls as there; RFP signal change, %; measured here: RFP expression control read;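 0 = vehicle wells; hits needed this value within 50% of zero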
# * hit, by the source's call; i = inactive; ? = inconclusive; . = no result given.
SMILES,PABP polyA inh,CSC inhib,eIF4H inh,MT1-MMP act inh,MT1-MMP act inh RFP,UUG fidelity,HIV Env fusion,Rce1 inhib,others
O=C1CC(c2ccccc2F)C2=C(COC2=O)N1 (stereo unspecified),4,-4,2,1,3,.,30,i,
COc1ccc(CNC(=O)[C@H](C)NC(=O)C2CC(=O)N(c3ccc(OC)cc3)C2)cc1 (stereo partly specified),7,-4,-14,0,3,-13,-1,i,
CCc1ccc(-c2nn(Cc3ccccc3)cc2/C=C/C(=O)O)cc1,-10,1,-11,9,2,-20,.,i,
Cc1onc(-c2c(F)cccc2Cl)c1C(=O)OCC(=O)NC1CC1,7,0,6,-1,2,.,14,i,
Cc1cccc(NC(=O)c2cnn3ccccc23)c1C,-7,-6,1,-11,-3,-18,9,i,
C=CCN=C1CCCc2c1[nH]c1ccc(C)cc21,-4,-21,-2,2,3,-18,62*,i,
Cc1cccc(C(=O)NC2CCN(C(=O)Nc3ccc(F)cc3)CC2)c1,5,-5,-6,1,0,-14,10,i,
Cc1c(C(=O)N2CCC2)oc2c(F)cccc12,.,-5,.,5,4,-37,-13,.,
COc1ccccc1/C=C1\SC(=S)N(N2C(=O)CCCC2=O)C1=O,-14,-9,-15,8,2,-12,7,i,
Cc1ccc(-c2cc(-c3ccccc3O)nc(N/N=C/c3cccnc3)n2)cc1,-3,12,0,1,-4,.,.,i,
Cc1nn(C(=O)CNC(=O)c2ccccc2)c(C)c1C,5,.,10,1,0,.,10,i,
CCNS(=O)(=O)c1cc(S(C)(=O)=O)ccc1Cl,-2,9,3,6,6,.,.,i,
CCN(CC)C1CC(=O)N(c2cccc(C)c2)C1=O (stereo unspecified),-4,5,-6,.,.,.,.,i,
COc1cccc(NC(=O)CSc2nnc(-c3cc(-c4ccccn4)nc4ccccc34)o2)c1,-2,2,-4,-4,-2,-22,.,i,
Cc1cc(C)cc(C(=O)NCC(=O)N2CCN(C(c3ccccc3)c3ccccc3)CC2)c1,7,62,8,-2,-2,-16,0,i,
CCC(=O)Nc1nc(CC(=O)Nc2ccccc2)cs1,4,-9,-3,2,-4,1,-29,i,
CCSc1nc(NCCN(C)C)c2c3c(sc2n1)COC(C)(CC)C3 (stereo unspecified),3,-14,-15,2,2,-13,11,i,
CCN1C[C@@H]2[C@@H]3C(=O)N(Cc4ccccc4)C(=O)[C@@H]3[C@](Cc3ccccc3)(C(=O)OC)N2C1=NC1CCCCC1,.,.,.,-3,-5,-5,17,.,
CC(C(=O)c1ccccc1)n1cnc2ccccc2c1=O (stereo unspecified),-9,4,-6,-7,0,-5,5,i,
CCCCOc1cccc(C(=O)O)c1,6,-6,-2,1,3,-2,.,i,

# An excerpt from above in order of length of the SMILES, ascending:
SMILES,PABP polyA inh,CSC inhib,eIF4H inh,MT1-MMP act inh,MT1-MMP act inh RFP,UUG fidelity,HIV Env fusion,Rce1 inhib,others
CCCCOc1cccc(C(=O)O)c1,6,-6,-2,1,3,-2,.,i,
Cc1c(C(=O)N2CCC2)oc2c(F)cccc12,.,-5,.,5,4,-37,-13,.,
Cc1cccc(NC(=O)c2cnn3ccccc23)c1C,-7,-6,1,-11,-3,-18,9,i,
CCC(=O)Nc1nc(CC(=O)Nc2ccccc2)cs1,4,-9,-3,2,-4,1,-29,i,
CCN(CC)C1CC(=O)N(c2cccc(C)c2)C1=O (stereo unspecified),-4,5,-6,.,.,.,.,i,
Cc1nn(C(=O)CNC(=O)c2ccccc2)c(C)c1C,5,.,10,1,0,.,10,i,
CCSc1nc(NCCN(C)C)c2c3c(sc2n1)COC(C)(CC)C3 (stereo unspecified),3,-14,-15,2,2,-13,11,i,
COc1ccccc1/C=C1\SC(=S)N(N2C(=O)CCCC2=O)C1=O,-14,-9,-15,8,2,-12,7,i,
Cc1cccc(C(=O)NC2CCN(C(=O)Nc3ccc(F)cc3)CC2)c1,5,-5,-6,1,0,-14,10,i,
Cc1ccc(-c2cc(-c3ccccc3O)nc(N/N=C/c3cccnc3)n2)cc1,-3,12,0,1,-4,.,.,i,
Cc1cc(C)cc(C(=O)NCC(=O)N2CCN(C(c3ccccc3)c3ccccc3)CC2)c1,7,62,8,-2,-2,-16,0,i,
CCN1C[C@@H]2[C@@H]3C(=O)N(Cc4ccccc4)C(=O)[C@@H]3[C@](Cc3ccccc3)(C(=O)OC)N2C1=NC1CCCCC1,.,.,.,-3,-5,-5,17,.,

# The results go on:
SMILES,PABP polyA inh,CSC inhib,eIF4H inh,MT1-MMP act inh,MT1-MMP act inh RFP,UUG fidelity,HIV Env fusion,Rce1 inhib,others
C[C@@H]1OC(C2CCCCC2)N(C)[C@H]2C[C@H]3c4[nH]c5ccccc5c4CCN3C[C@@H]12 (stereo partly specified),.,.,.,-3,0,-1,-3,.,
CNC(=O)c1oc(-c2ccc(Cl)cc2)nc1C,-12,-3,-5,-5,-4,.,1,i,
CCOC1(NC(=O)c2ccccc2)C(C)=CC(=O)C=C1C,4,5,-8,-2,4,-18,-50,i,
COc1ccc(/C=C/C(=O)c2c(O)c(OC)c3occc3c2OC)cc1,1,.,-4,2,-8,.,-10,i,
CC1(c2ccc([N+](=O)[O-])cc2)Nc2ccccc2S1 (stereo unspecified),-3,7,1,-1,3,-9,-24,i,
CCOC(=O)c1ccccc1NC(=O)CN(c1ccc(OCC)cc1)S(C)(=O)=O,8,.,-11,.,.,.,.,i,
O=C(OCc1ccc(Cl)c(Cl)c1)c1cccnc1Cl,3,-3,-9,-2,-1,-5,-8,i,
COC(=O)C1=NNC2(c3ccc(Cl)cc3)C(=O)N(c3ccc(Cl)cc3)C(=O)C12 (stereo unspecified),-10,0,-2,3,3,-1,15,i,
O=C1[C@H]2[C@@H](c3ccccc3)N[C@]3(CCCN(Cc4ccc(F)cc4)C3=O)[C@H]2C(=O)N1Cc1ccccc1,.,.,.,1,3,4,-48,.,
CC(=O)c1ccc(Nc2nc(CN)cs2)cc1,.,.,.,1,2,-9,7,.,
O=C(CSc1nnc(-c2ccccc2F)o1)NC1CC1,.,0,.,0,5,5,.,.,
COc1ccc(C(=O)CN2C(=O)NC3(CCCc4ccccc43)C2=O)cc1 (stereo unspecified),.,5,.,-2,-5,.,12,i,
CC(C)NC(C(=O)Nc1cc(Cl)cc(Cl)c1)c1ccccc1 (stereo unspecified),6,-1,0,4,-4,-9,.,i,
Cc1nc2cc(NC(=O)N3CCCC3)ccc2n1C,-9,-3,-3,3,1,4,-52,i,
COc1ccccc1C(=O)Nc1nnc(CCc2ccccc2)s1,9,52,-4,-3,-11,2,-98,i,
Cc1occc1-c1nc(-c2ccccn2)no1,14,16,4,-2,-1,-25,-43,i,
N#Cc1nc(Cc2ccccc2)oc1N1CCN(c2ccccc2)CC1,-6,.,-4,9,-5,-2,.,i,
CCOC(=O)c1ccc(COC(=O)c2nonc2N)cc1,8,-13,2,2,2,-20,-38,i,
COc1ccc([N+](=O)[O-])cc1N(CC(=O)NCc1ccco1)S(C)(=O)=O,-1,-10,3,2,4,.,-3,i,
O=C(N/N=C/c1ccc(Cl)cc1Cl)c1cccc(N2CCCC2=O)c1,2,4,3,3,-1,-15,11,i,
C=CCNC(=S)N1CCC(C(=O)c2ccc3c(c2)OCCO3)CC1,-3,-3,-11,-1,-7,.,21,i,
CCCCCCN=CC1=C(O)CC(C)(C)CC1=O,-4,4,-4,14,8,-4,?,i,
CCc1nnc(NC(=O)CSc2nnc(-c3ccccc3NC(=O)c3ccccc3)o2)s1,1,21,12,9,6,-29,-19,i,
CNCCCC1Sc2ccccc2Oc2ccccc21 (stereo unspecified),-4,13,7,-11,-4,-11,5,i,
CCOc1ccc(-c2nc(C)c(C(C)=O)n2O)cc1,-2,5,-3,-3,1,-26,-130,i,
O=C(Nc1ccc(Cl)cc1)N1CCN(C(=O)C2CCCO2)CC1 (stereo unspecified),-2,-6,-8,3,5,-16,-6,i,
O=C(CCC(=O)NNc1nc2ccccc2c2nc(-c3ccccc3)nn12)NCCCN1CCOCC1,-4,0,-6,7,4,.,-13,i,
COc1ccc(CN(C)Cc2c(O)ccc3ccccc23)cc1,-1,-3,10,-5,0,-7,0,i,
O=C(CNC(=O)c1ccccc1)OCc1cccc([N+](=O)[O-])c1,52,4,3,-1,5,.,1,i,eIF4H inh retest=-6;PABP polyA inh retest=11
O=C(CCc1ccccc1)OCCN1CCOCC1,7,-8,-6,0,-1,-9,.,i,
C[C@H]1CCC[C@@]2(O[C@@H](CCO)C[C@H](O)[C@H]2O)O1,.,.,.,1,5,-14,-3,i,
Nc1nc(Nc2ccccc2)nc(C(F)(F)F)n1,4,11,-7,-1,1,-10,-18,i,
COc1ccc(C2=NN(CN3C(=O)C(=O)c4ccccc43)C(c3ccc(C)cc3)C2)cc1 (stereo unspecified),-5,.,3,-3,5,-9,-215,i,
Cc1cccc(C)c1NC(=O)CNC(=O)c1ccc2c(c1)OCCO2,.,15,.,-1,4,-12,-1,.,
CC1(C(=O)NCc2ccc3c(c2)OCO3)CCN1C(=O)Cc1cccc2ccccc12 (stereo unspecified),.,.,.,-4,0,-13,-2,.,
C[C@@H](NC(=O)c1nc[nH]c1C(=O)NCC(=O)OCc1ccccc1)c1ccccc1,-12,-11,4,2,1,-19,-4,i,
CCOc1cc(NC(=O)c2ccccn2)c(OCC)cc1NC(=O)CC(C)C,0,.,-3,0,-8,-8,.,i,
CC(=O)c1ccc(Nc2nc(C(N)C3CCCCC3)cs2)cc1 (stereo unspecified),.,.,.,-5,-4,-17,0,.,
CC(C)(C)NC(=O)NC(=O)CN1CCN(S(=O)(=O)c2ccccc2)CC1,-7,-10,-10,1,2,-8,16,i,
Cc1ccc(S(=O)(=O)CC(=O)Nc2ccc(Cl)cn2)cc1,3,-12,10,-3,3,-6,-9,i,
O=C1CCC/C(=N/NC(=O)c2ccc(NS(=O)(=O)c3cccs3)cc2)C1,-12,0,1,2,4,0,-9,i,
CCOc1ccc(C(=O)/C=C/c2cn(CN3CCN(C)CC3)c3ccccc23)cc1,6,100*,4,2,-2,-21,.,.,
Cc1ccc(NC(=O)CN(C)C(=O)COC(=O)C2=COCCO2)cc1,.,-9,.,1,6,.,.,i,
OC(c1ccccc1)c1nc(/C=C/c2ccc(C(F)(F)F)cc2)cs1 (stereo unspecified),.,.,.,-8,-1,-19,16,.,
CCOC(=O)CSc1nc(N)cc(=O)[nH]1,-3,-8,-3,1,2,-11,.,i,
CCC(CO)Nc1ccn2nc(-c3cc(OC)c(OC)c(OC)c3)cc2n1 (stereo unspecified),.,.,.,10,8,1,4,.,
CCOC(=O)c1[nH]c(C(=O)O)c(OC(=O)CC)c1C,11,-5,-3,.,.,-9,6,i,
O=C(O)CCC(=O)Nc1sc2c(c1C(=O)Nc1ccccc1)CCCCC2,-3,7,23,-12,6,.,15,.,
O=C(COC(=O)CC1CCCC1)Nc1ccc(Cl)cn1,.,-9,.,-3,2,-5,6,.,
Cc1ccc(CCNc2ccccc2C)cn1,-9,-9,-2,1,-3,-11,.,i,

# High-throughput results from PubChem BioAssay.
